UUG fidelity: yeast start codon fidelity modulation | S. cerevisiae UUG-firefly luciferase reporter, luminescence/redox ratio | 350,000 tested, 0.13% active | activity score, % at 18.7 µM;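 active means replicate mean at a twofold rise or more, about +100% in these data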;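 further: firefly luciferase made from a UUG start codon reports start codon fidelity; reporter light over untreated wells divided by growth signal over untreated wells; some hits fall short of that in this replicate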
Env fusion inh: HIV envelope-mediated fusion inhibition. inhibition, % at 12.3 µM. 360,000 tested, 1.1% active. HeLa-JRFL Env/CEM21 cell fusion, luciferase. AID 651610;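 active means mean replicate inhibition score of at least 50 and every replicate individually at or above 50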;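 further: 0% = plate neutral controls and 100% = maraviroc near 300 nM; one replicate is shown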
The depositor's hits bear a star; [ ] = another dose, or the depositor's remark. The list is partial; rates above refer to the full screens.

Env fusion inh	UUG fidelity	SMILES
-7.6[16.7 µM]	-5.1	C[C@@H]1CCCCO[C@@H](CN(C)C)[C@H](C)CN([C@@H](C)CO)C(=O)c2cc(NS(=O)(=O)c3cccs3)ccc2O1
14.9[16.7 µM]	-0.6	Cc1ccc(S(=O)(=O)Nc2ccc3c(c2)CC(=O)N([C@@H](C)CO)C[C@H](C)[C@@H](CN(C)S(=O)(=O)c2ccc(Cl)cc2)O3)cc1
-0.2[16.7 µM]	-20.8	O=C(C[C@H]1C[C@H]2c3cc(NC(=O)c4cccnc4)ccc3O[C@H]2[C@@H](CO)O1)NCc1ccccn1
-12.0[16.7 µM]	4.6	C[C@H]1CCCCO[C@@H](CN(C)S(=O)(=O)c2ccc(F)cc2)[C@@H](C)CN([C@@H](C)CO)C(=O)c2cc(NS(=O)(=O)c3cn(C)cn3)ccc2O1
-5.3[16.7 µM]	23.2	COc1ccc(NC(=O)Nc2cccc3c2O[C@@H](CN(C)C(=O)Nc2ccc(OC)cc2)[C@H](C)CN([C@@H](C)CO)C3=O)cc1
16.5[16.7 µM]	0.3	C[C@@H]1CCCCO[C@H](CN(C)S(=O)(=O)c2ccc(Cl)cc2)[C@H](C)CN([C@H](C)CO)C(=O)c2cc(NC(=O)Cc3ccccc3)ccc2O1
-8.7[16.7 µM]	-7.3	C[C@H](CO)N1C[C@H](C)[C@H](CN(C)Cc2ccc(-c3ccccc3)cc2)Oc2ncc(C#C[C@@H](C)O)cc2C1=O
13.4[16.7 µM]	7.5	CCC(=O)N(C)C[C@H]1Oc2cc(C#CC3CCCC3)ccc2S(=O)(=O)N([C@H](C)CO)C[C@H]1C
-0.6[16.7 µM]	7.3	CC(=O)Nc1ccc2c(c1)C(=O)N(C)[C@@H]1CC[C@H](CC(=O)N3CCc4ccccc4C3)O[C@H]1CO2
14.5[16.7 µM]	8.6	C[C@@H]1CCCCO[C@@H](CN(C)C)[C@@H](C)CN([C@@H](C)CO)C(=O)c2cc(NS(C)(=O)=O)ccc2O1
12.5[16.7 µM]	-10.0	C[C@@H]1CN([C@H](C)CO)C(=O)c2cc(NC(=O)c3ccccc3)ccc2O[C@@H](C)CCCCO[C@H]1CN(C)C(=O)Nc1ccccc1
1.3[16.7 µM]	-8.9	CC(=O)N(C)C[C@H]1Oc2cc(-c3ccncc3)ccc2S(=O)(=O)N([C@H](C)CO)C[C@H]1C
4.4[16.7 µM]	37.5	O=C(N[C@H]1CC[C@@H](CCNC(=O)C2CCCCC2)O[C@@H]1CO)c1ccccn1
-30.0[16.7 µM]	-8.9	C[C@@H]1CCCCO[C@@H](CN(C)C(=O)Nc2ccc(F)cc2)[C@@H](C)CN([C@H](C)CO)C(=O)c2cc(NC(=O)Nc3ccccc3)ccc2O1
16.2[16.7 µM]	13.2	CNC(=O)C[C@H]1CC[C@@H]2[C@H](COc3ccc(NC(=O)Nc4cccc(Cl)c4)cc3C(=O)N2C)O1
13.4[16.7 µM]	3.1	COCC#Cc1cnc2c(c1)C(=O)N([C@H](C)CO)C[C@H](C)[C@H](CN(C)C(=O)NC1CCCC1)O2
1.9[16.7 µM]	6.2	CCNC(=O)C[C@@H]1CC[C@@H]2[C@H](COc3ccc(NC(=O)c4cc(C)on4)cc3C(=O)N2C)O1
6.1[16.7 µM]	6.7	C[C@H]1CN([C@@H](C)CO)C(=O)c2cc(-c3ccccc3F)cnc2O[C@@H]1CN(C)C(=O)C1CCC1
12.1[16.7 µM]	2.7	C[C@@H]1CN([C@H](C)CO)C(=O)c2cccc(NC(=O)NC3CCCCC3)c2O[C@H]1CN(C)C(=O)Nc1cccc2ccccc12
-10.4[16.7 µM]	10.4	C[C@@H]1CCCCO[C@@H](CN(C)C(=O)Nc2ccccc2)[C@H](C)CN([C@@H](C)CO)C(=O)c2cc(NS(C)(=O)=O)ccc2O1
-17.0[16.7 µM]	-0.6	COCC(=O)N(C)C[C@H]1Oc2cc(C#CC(C)C)ccc2S(=O)(=O)N([C@H](C)CO)C[C@@H]1C
-18.3[16.7 µM]	-1.3	COc1ccc(S(=O)(=O)Nc2ccc3c(c2)CC(=O)N([C@H](C)CO)C[C@@H](C)[C@@H](CN(C)Cc2ccc(Cl)c(Cl)c2)O3)cc1
21.0[16.7 µM]	-3.5	C[C@H]1CN([C@@H](C)CO)C(=O)c2cc(C#Cc3ccccc3F)cnc2O[C@H]1CN(C)C(=O)C1CC1
2.5[16.7 µM]	0.0	N#C[C@@H]1[C@H](c2ccccc2)[C@H](CO)N1C(=O)Cc1ccccc1
-15.8[16.7 µM]	-17.1	COc1ccccc1CNC(=O)C[C@H]1CC[C@@H](NC(C)=O)[C@@H](CO)O1
1.5[16.7 µM]	-2.2	Cc1cc(C(=O)Nc2ccc3c(c2)C(=O)N(C)[C@@H]2CC[C@H](CC(=O)O)O[C@H]2CO3)no1
15.8[16.7 µM]	-8.1	C[C@@H]1CCCCO[C@H](CN(C)S(C)(=O)=O)[C@@H](C)CN([C@H](C)CO)C(=O)c2cc(NS(=O)(=O)c3cn(C)cn3)ccc2O1
27.2[16.7 µM]	-0.3	C[C@@H]1CN([C@@H](C)CO)C(=O)c2cc(NC(=O)Nc3ccc(C(F)(F)F)cc3)ccc2O[C@H]1CN(C)Cc1ccccc1
2.0[16.7 µM]	-15.0	C[C@H]1CN([C@@H](C)CO)C(=O)c2cccc(NC(=O)C3CC3)c2O[C@@H]1CN(C)C
-13.9[16.7 µM]	2.7	CN1C(=O)c2cc(NC(=O)c3cscn3)ccc2OC[C@@H]2O[C@@H](CC(=O)N3CCCCC3)CC[C@H]21
-26.1[16.7 µM]	-4.0	COc1ccc(-c2ccc([C@H]3[C@@H](C#N)N(C(=O)C4CCC4)[C@@H]3CO)cc2)cc1
4.5[16.7 µM]	-6.9	COc1ccc(NC(=O)N(C)C[C@@H]2OCCCC[C@@H](C)Oc3ccc(NC(=O)Nc4ccccc4)cc3C(=O)N([C@@H](C)CO)C[C@H]2C)cc1
-23.7[16.7 µM]	-12.6	C[C@H](O)C#Cc1ccc2c(c1)O[C@@H](CN(C)CC1CCOCC1)[C@H](C)CN([C@@H](C)CO)S2(=O)=O
9.8[16.7 µM]	-2.8	COc1ccc(-c2ccc3c(c2)O[C@H](CN(C)Cc2cccnc2)[C@@H](C)CN([C@H](C)CO)S3(=O)=O)cc1
2.8[16.7 µM]	2.1	Cc1ccc(S(=O)(=O)Nc2cccc3c2O[C@H](CN(C)C)[C@@H](C)CN([C@H](C)CO)C3=O)cc1
-11.6[16.7 µM]	-10.0	C[C@@H]1CN([C@H](C)CO)C(=O)c2cc(Br)cnc2O[C@@H]1CN(C)C(=O)c1cccnc1
11.4[16.7 µM]	-5.6	C[C@H](CO)N1C[C@H](C)[C@@H](CN(C)Cc2ccncc2)Oc2ccc(NC(=O)CCCN(C)C)cc2CC1=O
-14.2[16.7 µM]	6.2	C[C@@H](O)C#Cc1ccc2c(c1)O[C@@H](CN(C)Cc1cccnc1)[C@@H](C)CN([C@@H](C)CO)S2(=O)=O
-23.4[16.7 µM]	-6.8	C[C@H](CO)N1C[C@H](C)[C@@H](CN(C)C(=O)c2ccc(F)cc2)Oc2ncc(C#CCN(C)C)cc2C1=O
-6.8[16.7 µM]	-16.4	C[C@H](CO)N1C[C@H](C)[C@@H](CN(C)S(=O)(=O)c2ccc(F)cc2)Oc2cc(C#Cc3ccncc3)ccc2S1(=O)=O
11.4[16.7 µM]	-3.8	CC(=O)Nc1ccc2c(c1)C(=O)N(C)[C@H]1CC[C@@H](CC(=O)Nc3cn(C)nc3C)O[C@H]1CO2
-5.2[16.7 µM]	-4.5	C[C@@H]1CN([C@@H](C)CO)C(=O)Cc2cc(NC(=O)NC3CCCCC3)ccc2O[C@@H]1CN(C)CC1CCCCC1
-2.8[16.7 µM]	3.8	CC(C)NC(=O)Nc1ccc2c(c1)C(=O)N([C@H](C)CO)C[C@H](C)[C@@H](CN(C)Cc1ccccc1)OCCCC[C@H](C)O2
30.9[16.7 µM]	-4.9	C[C@@H]1CN([C@@H](C)CO)C(=O)c2cc(C#CCC3CCCC3)cnc2O[C@@H]1CN(C)Cc1ccccn1
5.0[16.7 µM]	-2.2	COc1ccc(NC(=O)N(C)C[C@H]2OCCCC[C@H](C)Oc3ccc(NS(=O)(=O)c4ccc(C)cc4)cc3C(=O)N([C@@H](C)CO)C[C@H]2C)cc1
5.2[16.7 µM]	4.3	Cc1noc(C)c1S(=O)(=O)N(C)C[C@@H]1OCCCC[C@@H](C)Oc2ccc(N(C)C)cc2C(=O)N([C@H](C)CO)C[C@H]1C
-4.5[16.7 µM]	-0.7	C[C@H](CO)N1C[C@H](C)[C@@H](CN(C)Cc2cccnc2)Oc2ncc(C#Cc3ccccn3)cc2C1=O
-12.3[16.7 µM]	-13.6	C[C@@H]1CN([C@H](C)CO)C(=O)c2cccc(NC(=O)Nc3ccc(F)cc3)c2O[C@@H]1CN(C)C(=O)Nc1cccc2ccccc12
1.4[16.7 µM]	-11.7	Cc1nc(S(=O)(=O)N[C@@H]2CCN(Cc3ccc(OCCO)cc3)C2)cn1C
14.5[16.7 µM]	-4.4	C[C@@H]1CN([C@H](C)CO)C(=O)Cc2cc(NC(=O)Cn3cnnn3)ccc2O[C@@H]1CN(C)S(=O)(=O)c1ccc(F)cc1
-2.5[16.7 µM]	2.9	O=C(C[C@@H]1CC[C@@H](NC(=O)Nc2ccc(C(F)(F)F)cc2)[C@@H](CO)O1)NCc1cccc(F)c1
17.4[16.7 µM]	22.9	C[C@@H]1CN([C@H](C)CO)C(=O)c2cc(NC(=O)CCC(F)(F)F)ccc2O[C@@H](C)CCCCO[C@H]1CN(C)S(=O)(=O)c1cccs1
-4.3[16.7 µM]	-7.2	C[C@H]1CN([C@@H](C)CO)C(=O)c2cc(NC(=O)CCCN(C)C)ccc2O[C@@H]1CN(C)S(=O)(=O)c1cn(C)cn1
-12.9[16.7 µM]	-12.6	CNC(=O)C[C@H]1CC[C@H]2[C@@H](COc3ccc(NC(=O)c4cc(C)on4)cc3C(=O)N2C)O1
-14.5[16.7 µM]	7.2	C=CCNC(=O)[C@H]1[C@@H]2C(=O)O[C@@H](c3ccccc3)[C@@H](c3ccccc3)N2[C@@H](c2ccc(O)cc2)[C@]12C(=O)Nc1ccc(C#CCCO)cc12
3.6[16.7 µM]	-3.7	C[C@@H]1CN([C@H](C)CO)C(=O)c2cc(-c3cncnc3)cnc2O[C@H]1CN(C)C(=O)Nc1ccc2c(c1)OCO2
6.4[16.7 µM]	-8.2	CCNC(=O)C[C@H]1CC[C@H]2[C@@H](COc3ccc(NS(=O)(=O)c4ccccc4C)cc3C(=O)N2C)O1
11.8[16.7 µM]	-5.4	CC(C)NC(=O)N[C@@H]1C=C[C@@H](CC(=O)NCCCN(C)C)O[C@@H]1CO
-22.7[16.7 µM]	11.3	C[C@@H]1CN([C@@H](C)CO)C(=O)c2cc(C#CC3(O)CCCC3)cnc2O[C@@H]1CN(C)Cc1cccnc1
-13.2[16.7 µM]	12.7	Cc1ccccc1S(=O)(=O)NCC[C@H]1CC[C@@H](NC(=O)C2CCC2)[C@@H](CO)O1

Complete entries from above. Values in the order: Env fusion inh | UUG fidelity
`CC(C)NC(=O)N[C@@H]1C=C[C@@H](CC(=O)NCCCN(C)C)O[C@@H]1CO` across the screens: 11.8[16.7 µM] | -5.4
`O=C(C[C@@H]1CC[C@@H](NC(=O)Nc2ccc(C(F)(F)F)cc2)[C@@H](CO)O1)NCc1cccc(F)c1` across the screens: -2.5[16.7 µM] | 2.9
`CNC(=O)C[C@H]1CC[C@H]2[C@@H](COc3ccc(NC(=O)c4cc(C)on4)cc3C(=O)N2C)O1` across the screens: -12.9[16.7 µM] | -12.6
`C[C@@H]1CN([C@H](C)CO)C(=O)c2cc(-c3cncnc3)cnc2O[C@H]1CN(C)C(=O)Nc1ccc2c(c1)OCO2` across the screens: 3.6[16.7 µM] | -3.7
`C[C@@H]1CN([C@H](C)CO)C(=O)Cc2cc(NC(=O)Cn3cnnn3)ccc2O[C@@H]1CN(C)S(=O)(=O)c1ccc(F)cc1` across the screens: 14.5[16.7 µM] | -4.4

The results go on:
Env fusion inh	UUG fidelity	SMILES
4.7[16.7 µM]	-7.1	C[C@@H]1CN([C@H](C)CO)S(=O)(=O)c2ccc(-c3cncnc3)cc2O[C@H]1CN(C)C
10.2[16.7 µM]	-16.2	O=C(C[C@@H]1C[C@@H]2c3cc(NS(=O)(=O)c4ccc(F)cc4)ccc3O[C@@H]2[C@H](CO)O1)NCc1ccc(-c2ccccc2)cc1
16.8[16.7 µM]	5.0	COc1ccc(NC(=O)Nc2ccc3c(c2)[C@@H]2C[C@H](CC(=O)NCc4ccc5c(c4)OCO5)O[C@@H](CO)[C@@H]2O3)cc1
-46.1[16.7 µM]	10.5	C[C@@H]1CCCCO[C@H](CN(C)C(=O)c2ccncc2)[C@H](C)CN([C@@H](C)CO)C(=O)c2cc(NS(=O)(=O)c3ccc(F)cc3)ccc2O1
4.0[16.7 µM]	-10.7	C[C@@H]1CN([C@H](C)CO)S(=O)(=O)c2ccc(-c3cncnc3)cc2O[C@@H]1CN(C)Cc1ccncc1
6.6[16.7 µM]	-7.7	C[C@@H]1CCCCO[C@H](CN(C)S(=O)(=O)c2ccc(Cl)cc2)[C@@H](C)CN([C@@H](C)CO)C(=O)c2cc(NC(=O)Nc3ccc4c(c3)OCO4)ccc2O1
-19.5[16.7 µM]	0.3	C/C=C/c1cnc2c(c1)C(=O)N([C@@H](C)CO)C[C@@H](C)[C@@H](CN(C)C(=O)NCCC)O2
-6.8[16.7 µM]	54.7	COc1ccccc1S(=O)(=O)N(C)C[C@H]1Oc2cc(/C=C/c3ccccc3)ccc2S(=O)(=O)N([C@H](C)CO)C[C@@H]1C
6.5[16.7 µM]	8.5	C[C@H](CO)N1C[C@H](C)[C@@H](CN(C)Cc2cncnc2)Oc2ncc(C#C[C@@H](C)O)cc2C1=O
13.3[16.7 µM]	-6.9	CC(C)NC(=O)N(C)C[C@H]1OCCCC[C@@H](C)Oc2ccc(NS(=O)(=O)c3cn(C)cn3)cc2C(=O)N([C@@H](C)CO)C[C@@H]1C

Source: PubChem (Broad Institute)
